From PubChem
TSHR ag: activates the human thyroid stimulating hormone receptor; HEK293-CNG-TSHR cells (CNG channel as cAMP sensor), membrane potential dye, cAMP; hit rate 0.48% among 73,000; P16473; AID 926; Potency, µM (titrated, usually from 57.1 µM), inactives show at the top dose activation, usual class: activators; active = well fitted activation curve of enough size with the parental cells flat; inconclusive = any curve in the parental cells; inactive = parental cells flat and receptor cells flat or falling; note: potency is the fitted concentration of half-maximal effect; % of control where 0% means no effect; weak receptor curves with flat parental cells got no call and are not listed
Target sequence (P16473 whole entry, looked up): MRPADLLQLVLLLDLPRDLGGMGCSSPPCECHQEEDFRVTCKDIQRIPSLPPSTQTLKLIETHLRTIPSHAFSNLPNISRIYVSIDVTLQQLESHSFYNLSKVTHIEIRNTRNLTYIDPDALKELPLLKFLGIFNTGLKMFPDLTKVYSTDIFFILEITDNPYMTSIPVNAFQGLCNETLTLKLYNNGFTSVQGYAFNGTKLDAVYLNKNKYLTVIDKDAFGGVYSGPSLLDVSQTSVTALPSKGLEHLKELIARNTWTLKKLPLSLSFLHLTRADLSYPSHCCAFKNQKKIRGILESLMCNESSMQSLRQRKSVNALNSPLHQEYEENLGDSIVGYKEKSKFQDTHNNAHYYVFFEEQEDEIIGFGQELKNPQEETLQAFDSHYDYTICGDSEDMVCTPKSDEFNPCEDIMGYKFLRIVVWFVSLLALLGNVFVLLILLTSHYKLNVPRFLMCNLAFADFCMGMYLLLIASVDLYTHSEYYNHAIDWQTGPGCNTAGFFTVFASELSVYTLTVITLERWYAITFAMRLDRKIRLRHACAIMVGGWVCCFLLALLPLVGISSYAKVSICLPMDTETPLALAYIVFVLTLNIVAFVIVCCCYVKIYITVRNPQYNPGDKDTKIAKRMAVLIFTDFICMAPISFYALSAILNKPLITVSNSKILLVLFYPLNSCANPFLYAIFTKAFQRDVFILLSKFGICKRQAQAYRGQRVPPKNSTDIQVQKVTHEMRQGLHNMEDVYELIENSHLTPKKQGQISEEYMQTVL
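HEK 293 cells stably expressing TSHR and a cAMP-gated CNG channel; parental CNG-only cells as counterscreen. Cells preloaded 60 min with membrane potential dye plus 100 uM RO 20-1724, then compound 30 min; fluorescence read at 590 nm.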
A647 autofl: compound fluoresces in the A647 spectral region. Compound fluorescence, A647 channel (570/671 nm), Tris buffer. max dye-equivalent concentration, M. 59,000 tested, under 10 active. AID 592; active means above 1 µM dye equivalent; inconclusive means 0.1 to 1 µM; inactive means 0.1 µM or less;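 note: values scaled relative to a standard on each plate; highest value over a series up to 38 µM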
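Compounds pinned into 100 mM Tris pH 8.0, 15 min at room temperature, then read with 570 nm excitation/671 nm emission filters. Fluorescence normalized to an on-plate six-point Alexa 647 standard curve, giving dye-equivalent concentration per compound concentration.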
A488 fluor: compound autofluorescence in A488 spectral region; max dye equivalency, M; hit rate 0.1% among 59,000; AID 591; compound autofluorescence, A488 spectral region, dye equivalency; hits give high values; active = above 10 nM dye equivalent; inconclusive = 1 to 10 nM; inactive = 1 nM or less; about half of its hits are not listed in these tables;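 note: highest value over a series up to 38 µM; compound alone in buffer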
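Compound autofluorescence was read in 100 mM Tris pH 8.0 after 15 min at room temperature, ex 480 nm/em 540 nm. Intensities were converted to A488 dye-equivalent concentration using an on-plate six-point A488 standard curve.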
AID923: qHTS Assay for Allosteric/Competitive Inhibitors of Caspase-1: Spectroscopic Profiling in AFC Spectral Region; compound fluorescence, AFC spectral region (405/520 nm); almost no hit is shown here; Potency, µM (top dose mostly 57.5 µM), without a hit: at the highest dose fluorescence increase, usual class: activators; hit rate 1.1% among 75,000; active = well fitted activation curve with a large enough effect; inconclusive = small, poorly fitted or top-dose-only effect;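 note: potency is the fitted concentration of half-maximal effect; 0% is about no effect; scaled to a free AFC standard on each plate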
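Baseline compound fluorescence (AFC region, 405 nm ex/520 nm em) taken from the intercept of kinetic reads with 50 nM caspase-1 and 5 uM Ac-WEHD-AFC; normalized to an on-plate AFC standard curve; compounds titrated up to 57 uM.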
Resorufin fluor: compounds fluorescent in resorufin spectral region | hit rate 0.04% among 59,000 | max dye-equivalent concentration, M | Compound fluorescence, resorufin region 547/598 nm, buffer; hits give high values | AID 588; active = above 10 nM dye equivalent; inconclusive = 1 to 10 nM; inactive = 1 nM or less; a few of its hits are not listed in these tables; note: highest value over a series up to 38 µM
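Compounds in 100 mM Tris buffer, pH 8.0, incubated 15 min at room temperature, then read with 547 nm excitation and 598 nm emission filters. Fluorescence was converted to dye-equivalent concentration using an on-plate six-point resorufin standard curve.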
* hit, by the source's call; i = inactive; u = inconclusive; x = not tested or not shown; [ ] = dose if it differs, or a comment. An excerpt. The share of hits here may be higher or lower than overall.

Each structure is followed by: TSHR ag	A647 autofl	A488 fluor	AID923	Resorufin fluor
O=C(c1nn2c(C(F)(F)F)cc(-c3ccc(F)cc3)nc2c1Cl)N1CCOCC1
 : 18%[11.4 µM]	x	x	2.9%	x
Cc1nc2c(-c3ccccc3)c(C)[nH]n2c(=O)c1Cl
 : 6%	2.8e-08	i	0.5%	i
CCOC(=O)c1csc(NC(=O)C2CCCCC2)n1
 : -3%	x	x	1.9%	x
C(=N\n1cnnc1)/c1ccc2c(c1)OCO2
 : -4%	x	x	3.2%	x
Cc1ccc(C(=O)N2CCOCC2)cc1S(=O)(=O)Nc1cccc(C)c1C
 : 8%	1e-09	i	-3.0%	i
Cc1c(C(=O)NCc2cccnc2)sc2ncn(CC(=O)N3CCCCC3C)c(=O)c12 (stereo not drawn)
 : u	1e-09	i	0.7%	i
Cc1ccc(CN2CCN(CC(=O)N3CCc4ccccc4C3)C2=O)cc1
 : u	4.6e-09	i	-0.7%	i
CCn1c(=O)c2[nH]c(-c3ccccc3)nc2n(CC)c1=O
 : u	1e-09	i	-2.7%	i
O=C(CCCN1C(=O)c2ccccc2C1=O)NC1=NCCS1
 : -2%	1.7e-08	i	0.6%	i
Cc1ccc(-n2cnc3c(sc4nccc(N(C)C)c43)c2=O)cc1
 : 0%	x	x	-2.9%	x
CCCCC(=O)Nc1cccc(NC(=O)c2ccc3c(c2)OCO3)c1
 : 1%	1.9e-08	i	-1.2%	i
CN1CCN(c2nc(NCCOC34CC5CC(CC(C5)C3)C4)nc(OCC(F)(F)F)n2)CC1
 : u	1e-09	i	1.9%	i
COc1ccc(Cn2c(C3CC3)nc3ccc(NC(=O)C4CC4)cc3c2=O)cc1
 : u	1e-09	i	-0.5%	i
c1ccc(-n2nnnc2SCc2cccc3nsnc23)cc1
 : u	2e-08	i	-0.7%	i
CCOc1ccc(-n2c(=O)[nH]cc(C(=O)N3CCCc4ccccc43)c2=O)cc1
 : 22%	1e-09	i	1.0%	i

Of the compounds above, 2 contain a thiophene ring, fused or not:
Each structure is followed by: TSHR ag	A647 autofl	A488 fluor	AID923	Resorufin fluor
Cc1c(C(=O)NCc2cccnc2)sc2ncn(CC(=O)N3CCCCC3C)c(=O)c12 (stereo not drawn)
 : u	1e-09	i	0.7%	i
Cc1ccc(-n2cnc3c(sc4nccc(N(C)C)c43)c2=O)cc1
 : 0%	x	x	-2.9%	x

Later entries.
Each structure is followed by: TSHR ag	A647 autofl	A488 fluor	AID923	Resorufin fluor
CCCCC(=O)Nc1ccc(NC(=O)c2cc(OC)c(OC)c(OC)c2)cn1
 : -5%	2e-09	i	0.3%	i
Cc1ccccc1N(C(=O)CCC(=O)Nc1ccccn1)C(C(=O)NC(C)C)c1ccc(O)cc1 (stereo not drawn)
 : -4%	1e-09	i	0.2%	i
O=C(O)[C@H]([C@H]1NCCS1)N1C(=O)c2ccccc2C1=O
 : -3%[11.4 µM]	1e-08	i	-1.8%[11.5 µM]	i
CCOC(=O)N1CCN(S(=O)(=O)c2ccc(C)cc2)C1c1ccc(OC)cc1 (stereo not drawn)
 : u	x	x	-0.7%	x
COc1cc(OC)c(C2C(C(=O)O)c3ccccc3C(=O)N2C)cc1OC (stereo not drawn)
 : -5%[11.4 µM]	1e-09	i	-1.5%	i
COc1ccc(N2CCC(CNC(=O)Nc3ccc(C)c(C)c3)C2)cc1 (stereo not drawn)
 : -20%	x	x	1.4%	x
Cc1ccc2[nH]c(-c3cccc(N)c3)cc2c1
 : -16%[11.4 µM]	1.5e-08	i	0.1%	i
CCn1c(SCC(=O)N2CCC(C(N)=O)(N3CCCCC3)CC2)nnc1-c1ccccc1
 : 1%	7.2e-08	i	-0.8%	i
O=C1CC(Nc2ccc(N3CCOCC3)cc2)C(=O)N1C1CCCCC1 (stereo not drawn)
 : -1%	1e-09	i	-0.3%	i
Nc1nonc1-c1noc(COc2ccccc2Cl)n1
 : -3%[11.4 µM]	1.5e-08	i	-1.9%	i
O=C(O)c1ccccc1C(=O)c1cccs1
 : -5%	6.2e-08	i	0.1%	i
Cc1c(NS(=O)(=O)CC23CCC(CC2=O)C3(C)C)c(=O)n(-c2ccccc2)n1C (stereo not drawn)
 : 2%	x	x	1.5%	x
CCOc1ccc(-c2nc(N)nc(C)c2-c2ccc(OC)c(OC)c2)c(O)c1
 : x	3.6e-09	i	-2.4%	i
CCC(C)NC(=O)C1CCN(C(=O)N(C)C)CC1 (stereo not drawn)
 : 2%	1.9e-08	i	-2.5%	i
COc1ccc(C(=O)CSc2nnc(Cc3ccccc3)o2)cc1
 : x	3.6e-08	i	2.1%	i
Cc1nccn1CC(=O)O
 : -6%	1.3e-08	i	-2.2%	i
c1ccc(-c2nn3c(C4COc5ccccc5O4)nnc3s2)cc1 (stereo not drawn)
 : 20%	1e-09	i	-0.9%	i
CC(C)C[C@H](N)c1nnc(S(=O)(=O)Cc2cccc(F)c2)o1
 : -2%	7.2e-09	i	-0.1%	i
CCCCOc1ccc(C(=O)Nn2cnnc2)cc1
 : x	1e-09	i	x	i
CCOc1ccc2[nH]c(=O)c(CN(Cc3ccco3)C(=O)c3ccc(Br)cc3)cc2c1
 : u	3.3e-08	i	1.7%	i
Cc1ccc2nc(-c3ccc(SCC(=O)Nc4cc(C)on4)nc3)[nH]c2c1
 : 10%	2e-09	i	2.1%	i
c1cncc(CNc2ncncc2-c2cccnc2)c1
 : -2%	9e-09	i	0.5%	i
COc1cc(-c2cc(C(F)(F)F)n3ncc(C(=O)O)c3n2)cc(OC)c1OC
 : x	3.2e-08	i	x	i
COc1ccc(C2C3=C(CC(c4ccco4)CC3=O)Nc3ccccc3N2C(C)=O)cc1 (stereo not drawn)
 : 4%	x	x	-1.2%	x
O=C(CSc1ncccc1C(=O)O)NCCC1=CCCCC1
 : 3%	4.5e-09	i	-1.2%	i
Cc1nn(-c2ccccc2)nc1CNC(=O)C(C)Cc1ccccc1 (stereo not drawn)
 : u	x	x	-3.0%	x
CCN(CC)c1ccc(NC(=O)c2nc3nc(C)cc(C(F)F)n3n2)cc1
 : -21%	x	x	-1.5%	x
CC(=O)Cc1nsc(NC(=O)c2ccc(-c3ccc(Cl)c(C(F)(F)F)c3)o2)n1
 : 1%	3.4e-08	i	-0.7%	i
CSc1nc(-c2ccccc2O)nc(-c2ccccc2O)n1
 : 7%	2.7e-08	i	-0.3%	i
CCCCOc1ccc(C2(C)CC(=O)NC2=O)cc1 (stereo not drawn)
 : 7%	x	x	0.4%	x
Cc1cc2cc(CCNC(=O)c3ccc(S(=O)(=O)N4CCOCC4)cc3)c(=O)[nH]c2cc1C
 : 0%	2.3e-09	i	-0.2%	i
CCCS(=O)(=O)N1CCCC(C(=O)N2CCN(C(=O)OCC)CC2)C1 (stereo not drawn)
 : 0%	3.2e-09	i	-0.2%	i
Clc1ccccc1-c1nc(-c2ccncc2)no1
 : 8%[11.4 µM]	1e-09	i	1.4%[11.5 µM]	i
Cc1cc(C(=O)COC(=O)CCc2nc3ccccc3s2)c(C)n1C
 : 5%	3.8e-08	i	-2.4%	i
CCCc1cc(=O)[nH]c(SC(CC)C(=O)Nc2ccccc2C#N)n1 (stereo not drawn)
 : 4%	2.4e-08	i	-2.8%	i
Cc1ccc2ncccc2c1
 : u	x	x	2.0%	x
CCOC(=O)Nc1c(C)n(C)n(-c2ccccc2)c1=O
 : -3%	8.2e-09	i	0.1%	i
COc1ccc(C(CNC(=O)Cc2cc(OC)c(OC)c(OC)c2)N2CCCC2)cc1 (stereo not drawn)
 : -1%	2.8e-08	i	0.5%	i
Cc1nnc(SCc2ccc(C(=O)c3ccc(Cl)cc3)o2)n1-c1ccccc1
 : -5%	1.7e-09	i	-1.4%	i
Cc1ccc(-n2ncc(C#N)c2/N=C/N(C)C)cc1
 : -1%	5.6e-08	i	-1.2%	i
CCOC(=O)C1C(C)N=C2SCC(=O)N2C1c1cccc(Br)c1 (stereo not drawn)
 : u	x	x	0.8%	x
COc1ccccc1C(=O)NCc1ccncc1
 : 2%	4.6e-08	i	-0.8%	i
O=C1C(Cl)=C(Nc2ccc(S(=O)(=O)Nc3ccccn3)cc2)C(=O)c2ccccc21
 : -2%[11.4 µM]	2.9e-08	i	-1.0%[11.5 µM]	i
O=C(NC1CCCC1)C(c1cccs1)N(C(=O)c1ccco1)c1ccc2c(c1)OCCO2 (stereo not drawn)
 : u	2.8e-08	i	0.3%	i
Cc1cc(-c2cc(C)c(O)c(C(C)(C)C)c2)cc(C(C)(C)C)c1O
 : 13%[11.4 µM]	1e-09	i	-1.7%[11.5 µM]	i
COC(=O)C1=C(NC(=O)c2cccs2)CCS1
 : u	1.9e-08	i	9.9%	i
COc1ccc(C2CC(=O)c3cnc(NC(=O)c4ccccc4)nc3C2)cc1OC (stereo not drawn)
 : u	x	x	0.0%	x
OC1CC2CC[C@H](C1)N2CCCN1c2ccccc2Sc2ccc(Cl)cc21 (stereo partly drawn)
 : 9%[11.4 µM]	2.2e-08	i	-1.3%[11.5 µM]	i
Cc1ccc(-c2csc(N(CC3CCCO3)C(=O)c3ccco3)n2)cc1 (stereo not drawn)
 : u	4.9e-08	i	0.4%	i
Cc1c(NC(=O)C2CCN(S(=O)(=O)c3ccccc3)CC2)c(=O)n(-c2ccccc2)n1C
 : -3%	x	x	1.8%	x
CN(C)c1ccc(CNC(=O)CN(C)S(=O)(=O)c2cccc3cccnc23)cc1
 : 3%	x	x	2.3%	x
O=C(NCC(c1cccnc1)N1CCOCC1)Nc1ccccc1 (stereo not drawn)
 : 17%	9.4e-09	i	-0.3%	i
CC1CN(Cc2nc3c(c(=O)[nH]c(=O)n3C)n2CCN2CCOCC2)CC(C)O1 (stereo not drawn)
 : -7%	1e-09	i	1.2%	i
CCSCCOC(=O)C1=C(C)NC(=O)NC1c1cccc(OC)c1OC (stereo not drawn)
 : 5%	x	x	-2.2%	x
COc1ccc(-n2c(=O)c(-c3ccc(F)cc3)nc3cnc(N4CCNCC4)nc32)cc1
 : -4%	1e-09	i	21%	i
CCOc1ccc(OCC)c(NC(=O)C2CCCN(S(=O)(=O)c3c(C)n[nH]c3C)C2)c1 (stereo not drawn)
 : 2%	x	x	-1.4%	x
Cc1cc(C)nc(N2CCC(C(=O)NCc3cccc(C(F)(F)F)c3)CC2)n1
 : x	1e-09	i	2.7%	i
CCC(=O)Nc1ccc(Cl)c(NC(=O)C(C)C)c1
 : 0%	3.4e-08	i	0.0%	i
CSc1ccccc1NC(=O)c1c(Br)cnn1C
 : x	6.7e-08	i	x	i
Cn1cc(CC(=O)Nc2cccc(C#N)c2)c2ccccc21
 : -10%	2.7e-09	i	0.7%	i

(more compounds)
Each structure is followed by: TSHR ag	A647 autofl	A488 fluor	AID923	Resorufin fluor
Cc1nn(-c2ccccc2)c(-c2ccccc2)c1C(=O)O
 : -1%[11.4 µM]	x	x	-2.0%	x
CC1CCCCN1C(=O)CSCC(=O)Nc1nc(-c2cccs2)cs1 (stereo not drawn)
 : u	x	x	-0.1%	x
Cc1cc(C)cc(OCC(=O)Nc2nonc2NC(=O)COc2cc(C)cc(C)c2)c1
 : -6%	1e-09	i	1.0%	i
Cc1ccc(C(=O)NC2CC3CCCC(C2)N3C(=O)NC2CCCCC2)cc1 (stereo not drawn)
 : 17%	3.3e-08	i	0.8%	i
Cc1ccccc1C1CC(c2ccc(Br)cc2)Nc2nc(N)nn21 (stereo not drawn)
 : 28%	x	x	-1.7%	x
CC1CCCN(Cc2nc3c(c(=O)n(C)c(=O)n3C)n2Cc2c(F)cccc2Cl)C1 (stereo not drawn)
 : 5%	x	x	-0.8%	x
C=CCn1c(SCC(=O)C(C)(C)C)nnc1-c1ccccn1
 : 9%	5.1e-09	i	0.1%	i
COC(=O)[C@@]1(Cc2ccccc2)[C@H]2c3cc(C(=O)N(C)C)n(CCN4CNCC4=O)c3C[C@H]2CN1C(=O)c1ccccc1
 : 6%	x	x	0.4%	x
